VACV E9 pol inh: blocks vaccinia virus processive DNA synthesis; in vitro processive DNA synthesis, absorbance read-out; active compounds read low; some inactives read as strong as hits; normalized absorbance, % (concentration not given with the values); hit rate 0.94% among 46,000;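 active means replicate mean up to 90% and picked by the depositor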;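 further: 100% = median of the test wells of a plate; 100 nL library stock went into each well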
* = called active by the depositor. The list is partial (hit frequency here may not be typical).

SMILES | VACV E9 pol inh
CC(C)(C)C(=O)CSc1nnc(-c2cc(OCC(F)(F)F)ccc2OCC(F)(F)F)o1 | 101
COC(=O)CSC1=C(C#N)C(=O)NC(c2ccccc2O)S1 (stereo not drawn) | 91
COc1ccc(CCNC(=S)NC2CC2)cc1OC | 101
CN=C(Nc1cc(C)nn1-c1ccccc1)c1ccccc1F | 103
O=C(COC(=O)COc1cccc(Br)c1)Nc1c(Cl)cccc1Cl | 70
CC(=O)NC(NCC12CC3CC(CC(C3)C1)C2)(C(F)(F)F)C(F)(F)F | 96
COc1ccc2cc(C(=O)NC(C)=O)c(=Nc3ccccc3)oc2c1 | 100
N#C/C(=C\NN1CCCCC1)S(=O)(=O)c1ccc(Cl)cc1 | 99
CS(=O)(=O)N(CC(=O)Nc1cccc(Cl)c1)c1ccccc1Cl | 100
C=C1SC(Nc2ccc(F)cc2F)=NC1(CC)CC | 106
CCCSc1nc2cc(C)c(C)cc2n1CC(O)CO (stereo not drawn) | 106
COC(=O)c1ccc(NC(=O)C(c2ccccc2)c2ccccc2)cc1 | 102
Cc1ccc(-c2csc(/C(C#N)=C/Nc3ccccc3)n2)cc1C | 101
CN1CCc2c(n(CC(O)CN3CCCC3)c3ccccc23)C1=O (stereo not drawn) | 84
O=C(Nc1ccccc1)C(F)(F)F | 101
CC1CC(C)CN(C(=O)CSc2nnc(COc3ccc(Cl)cc3)o2)C1 (stereo not drawn) | 100
CN(C)CCOC(=O)C12CC3CCC(CC(C3)C1)C2 | 99
C=CCSC1=C(C#N)C(C)(C)C(C#N)C(=O)N1 (stereo not drawn) | 88
COC(=O)c1ccc2c(=O)n(-c3ccc(F)c(Cl)c3)c(SCC(=O)C(C)(C)C)nc2c1 | 96
Cc1nc2ccc(Br)cc2c(-c2ccccc2)c1C(=O)O | 100

In the list so far, these have an aryl methoxy group:
SMILES | VACV E9 pol inh
COc1ccc(CCNC(=S)NC2CC2)cc1OC | 101
COc1ccc2cc(C(=O)NC(C)=O)c(=Nc3ccccc3)oc2c1 | 100

Other records.
SMILES | VACV E9 pol inh
CCn1c2ccccc2c2nc3ccccc3nc21 | 90*
CCc1ccc(NC(=O)c2ccc3c(=O)n4c(nc3c2)CCCCC4)cc1 | 104
COc1ccccc1C(=O)N/C(N)=N/c1nc2ccccc2o1 | 99
CN(C)S(=O)(=O)c1ccc(C(=O)Nc2nc3c(s2)CCCC3)cc1 | 99
COc1ccccc1NC(=O)c1cc2ccccc2oc1=Nc1ccccc1F | 100
CCN(Cc1ccccc1)C(=O)CSc1ccccc1C(=O)O | 99
CC(=O)N(Cc1ccco1)C1(C(=O)NC2CCCCC2)CCCCC1 | 94
Cc1cc(C)n(C(=O)c2ccncc2)n1 | 100
Cc1nnc(NC(=O)CSc2nnc(Cc3cccn3C)n2-c2ccc(F)cc2)s1 | 97
O=C1Nc2ccccc2C(O)(C(=O)N2CCCCC2)N1c1ccccc1 (stereo not drawn) | 99
Fc1cccc(-c2csc(COc3ccccc3Cl)n2)c1 | 100
O=C1C=C(NCc2ccccc2)C2(CCCCC2)O1 | 101
O=C(NCCCN1CCOCC1)c1cc(-c2ccc(F)cc2)nc2ccccc12 | 87
COc1ccc(C2OCc3ccccc3N2C(=O)c2cccc(OC)c2)cc1 (stereo not drawn) | 87
CCc1nc2sccc2c(=O)[nH]1 | 100
O=C(CSC1CCCC1)c1cccs1 | 95
CC(C)Oc1ccc(C(=O)O)cc1 | 88
CCN1C(=O)/C(=C/C=C2/Sc3ccccc3N2CC)SC1=S | 100
Cc1cc(C=C2C(=O)OC(C)(C)OC2=O)c(C)n1-c1ccc(I)cc1 | 100
CC(C)Cc1csc(NC(=O)/C=C/c2ccccc2)c1C(=O)O | 78
CN(CC(=O)NCc1ccccc1)S(=O)(=O)c1ccc2nc(-c3ccccc3)[nH]c2c1 | 98
Cc1onc(-c2ccccc2)c1C(=O)Oc1cccnc1 | 100
CN(C(=O)CC1(CC(=O)O)CCCC1)C1CCCCC1 | 113
Cc1ccc(SCC(=O)NC2CC3CCC(C2)N3C)cc1 (stereo not drawn) | 97
Cc1ccc(C2C=C(C34CC5CC(CC(C5)C3)C4)NC(=S)N2)cc1 (stereo not drawn) | 100
CC(C)c1ncc2c(n1)-c1cc(Cl)ccc1SC2 | 99
Fc1cccc(Cl)c1C1N2CCCCN12 (stereo not drawn) | 100
O=C(/C=C/c1cccc(Br)c1)N1CCN(c2ccccc2O)CC1 | 84
O=C(O)C(Br)(Cc1ccccc1)C(=O)O | 109
CC(O)C12CC3CC(CC(C3)C1)C2 (stereo not drawn) | 102
Cc1cccc(NC(=O)CN2c3cccc4cccc(c34)S2(=O)=O)c1 | 100
O=S(=O)(NC1CCCCC1Oc1ccccc1)c1ccccc1 (stereo not drawn) | 102
O=C(O)Cn1cc(C(=O)c2ccccc2F)c2ccccc21 | 94
CC(C)C(=O)Nc1ncc(Cc2ccccc2Cl)s1 | 97
CCC(=O)Oc1ccc(N2C(=O)C3C4C=CC(C4)C3C2=O)cc1 (stereo not drawn) | 100
Cc1ccc(C(O)c2cccnc2)o1 (stereo not drawn) | 100
Cc1ccc(NC(=O)CCCC(=O)c2ccccc2)cc1Cl | 88
Cc1ccc(Nc2c(-c3c[nH]c4ccccc34)nc3c[n+](CC(N)=O)ccn23)cc1 | 95
FC(F)(F)c1cccc(OCc2nnc3n2CCCCC3)c1 | 104
Cc1ccc(CNC(=O)CCC(=O)Nc2ccc3nc(N4CCCCC4)cc(C)c3c2)cc1 | 104
O=C(CSc1ccc(Cl)cc1)NC1CCCc2ccccc21 (stereo not drawn) | 104
FC(F)(F)c1cc(C#CCN2CCCC2)cc(C(F)(F)F)c1 | 98
CC(=O)Nc1ccc(-n2c(C)ccc2C)cc1 | 86
Cc1cc(C)n(C(=O)CNC(=O)c2ccccc2)n1 | 111
O=C1CSC(c2ccccc2Cl)c2cc(Cl)ccc2N1 (stereo not drawn) | 99
Cc1ccc(N2CCN(C(=O)c3cnn4c(C)c(Cc5ccccc5Cl)c(C)nc34)CC2C)cc1 (stereo not drawn) | 108
O=C(Nc1cccs1)Nc1nnc(C2CC2)s1 | 99
CSc1cccc(NC(=O)CN(C)S(=O)(=O)c2cnc[nH]2)c1 | 102
COc1cc2c(cc1OC)C(C)N(C(=O)Nc1ccccc1)CC2 (stereo not drawn) | 106
COC(=O)c1ccc(COc2ccc(C3OC(C)CC(C)(C)O3)cc2OC)cc1 (stereo not drawn) | 100

(cont.)
SMILES | VACV E9 pol inh
Cc1ccc(SCCNC(=O)c2cccnc2Oc2ccccc2)cc1 | 100
CCCS(=O)(=O)/C(C#N)=C/c1sccc1Oc1ccccc1 | 102
CC1(C)Cc2c(c3ccccc3n2-c2ccccc2)C(C)(C)N1 | 100
CCC(=O)Nc1ccc(-c2nc3ccc(C)cc3s2)cc1 | 99
CC(C)Nc1ccc(Nc2ccnc3cc4ccccc4cc23)cc1 | 10*
O=c1[nH]cnc2c1ncn2[C@@H]1C[C@@H](O)[C@H](CO)O1 | 106
COc1ccc(OC)c(N=c2cc(-c3ccc4c(c3)OCO4)oc3ccccc23)c1 | 96
CC(Cc1ccccc1)NC(=O)C1CCCNC1=O (stereo not drawn) | 98
COC(NC(=O)Nc1nc2ccccc2s1)(C(F)(F)F)C(F)(F)F | 100
CCOc1nc(NC(C)(C)CO)nc(OCC)n1 | 100
CC1CCC(NC(=O)C(C)C2Sc3ccccc3N(Cc3cccc(Cl)c3)C2=O)CC1 (stereo not drawn) | 99
c1coc(-c2ccnc3ncnn23)c1 | 115
Cc1ccc(/C=C2/SC(=O)N(CCC(=O)N3CCN(C)CC3)C2=O)cc1 | 94
CC(=O)c1sc2nsc(SCCN3CCCC3)c2c1N | 56
COc1cc(C(=O)NN)c(-n2c(C)ccc2C)cc1OC | 102
COc1ccc(/C=C/C(=O)Nc2nnc(-c3ccccc3)s2)cc1OC | 99
COc1ccc2oc(=O)c3c(c2c1)CC(C(F)(F)F)S3 (stereo not drawn) | 100
COc1cccc(CN2CCC(C(=O)NC(C)C)CC2)c1 | 101
Cc1nc2cc(-c3ccccc3)nn2c(C)c1Sc1nccc(-c2cccnc2)n1 | 100
CCC1CCCCN1S(=O)(=O)c1ccc(Cl)cc1 (stereo not drawn) | 100
CCN(CC)C(=O)c1ccc(COc2ccccc2Cl)o1 | 100
COc1ccc2c(C)cc(SCC(=O)Nc3ccccc3)nc2c1 | 102
CCOC(=O)c1cnc(S/C=C/C(=O)c2ccc(C)cc2)nc1N | 100
COc1cc(Cl)c(C)cc1NC(=O)CSc1nc2ccccc2[nH]1 | 95
O=C1CCCC2=C1C(c1ccc(O)cc1)C1=C(CCCC1=O)O2 | 103
CC(C)N(c1ccccc1)c1ccc(NC(=O)COC(=O)C2CC2)cc1 | 92
CCC1=N/C(=C\c2ccc(C)cc2)C(=O)O1 | 102
Cc1ccc(S(=O)(=O)NCCC(=O)N2CCN(Cc3ccccc3)CC2)cc1 | 91
CC1CCC/C(=C/c2ccc(Cl)cc2)C1=O (stereo not drawn) | 98
Cc1c(C)c(C)c(S(=O)(=O)/N=C/N(C)C)c(C)c1C | 90

Quoted from the listing:
Value of COc1cc(C(=O)NN)c(-n2c(C)ccc2C)cc1OC in VACV E9 pol inh: 102
Value of O=C(/C=C/c1cccc(Br)c1)N1CCN(c2ccccc2O)CC1 in VACV E9 pol inh: 84
Value of CC(=O)Nc1ccc(-n2c(C)ccc2C)cc1 in VACV E9 pol inh: 86
Value of Cc1ccc(C(O)c2cccnc2)o1 (stereo not drawn) in VACV E9 pol inh: 100
Value of COc1ccccc1C(=O)N/C(N)=N/c1nc2ccccc2o1 in VACV E9 pol inh: 99

(continued)
SMILES | VACV E9 pol inh
O=C(COc1nnc(SCCS(=O)(=O)c2ccc(F)cc2)n1C1CC1)c1ccc(F)cc1 | 105
Cc1nc(C(F)(F)F)ccc1NC(=O)NCCNc1cccc(C(F)(F)F)n1 | 104
COc1ccc(-c2csc(Nc3ccccc3)[n+]2C)cc1 | 97
Cc1[nH]n(-c2ccccc2)c(=O)c1C=Nc1ccc(O)cc1 | 100
O=C(O)CN(CCc1ccccc1)CC(=O)O | 100
CC(C)OC(=O)c1ccc(COC(=O)CNC(=O)c2ccco2)cc1 | 99
O=C(NCc1ccco1)c1ccc(/C=C2\Oc3ccccc3N(Cc3ccccc3F)C2=O)cc1 | 99
COc1ccc(OC)c(NC(=O)c2ccc(CSc3ncnc4nc[nH]c34)cc2)c1 | 100
CCOC(=O)Cc1nc(-c2ccc(Cl)cc2)cs1 | 99
COc1cc(C2N(Cc3ccccc3)CCCN2Cc2ccccc2)ccc1O | 100
C=CC1CN2CCC1CC2C(OC(=O)c1ccco1)c1ccnc2ccccc12 (stereo not drawn) | 95
COc1cccc(/C=C/C(=O)OCC(=O)NC2CCCCC2)c1 | 112
Cc1sc2nc(SCc3ccc(C(=O)NCCO)cc3)nc(N)c2c1C | 94
Clc1ccccc1C1SCC2Nc3ccccc3CN21 (stereo not drawn) | 102
O=C(CCCOc1ccc(Cl)cc1Cl)NCc1ccncc1 | 85
CCC(Sc1nnc(-c2c[nH]c3ccccc23)n1C)C(=O)OC (stereo not drawn) | 104
Nc1nc(-c2ccc(F)cc2)cc(C(F)(F)F)n1 | 102
CCC(=O)NCc1nc2ccccc2n1Cc1ccccc1F | 95
COc1cc2c(cc1OC)C(c1ccc(Cl)cc1)=NCC2 | 100
CCN1C(=O)C(=Cc2ccc(N(C)C)cc2)C(=O)N(CC)C1=S | 100

Quoted at random: ten records from the list
SMILES | VACV E9 pol inh
Cc1sc2nc(SCc3ccc(C(=O)NCCO)cc3)nc(N)c2c1C | 94
CCC(Sc1nnc(-c2c[nH]c3ccccc23)n1C)C(=O)OC (stereo not drawn) | 104
Clc1ccccc1C1SCC2Nc3ccccc3CN21 (stereo not drawn) | 102
Nc1nc(-c2ccc(F)cc2)cc(C(F)(F)F)n1 | 102
COc1cccc(/C=C/C(=O)OCC(=O)NC2CCCCC2)c1 | 112
O=C(CCCOc1ccc(Cl)cc1Cl)NCc1ccncc1 | 85
C=CC1CN2CCC1CC2C(OC(=O)c1ccco1)c1ccnc2ccccc12 (stereo not drawn) | 95
CCC(=O)NCc1nc2ccccc2n1Cc1ccccc1F | 95
CCN1C(=O)C(=Cc2ccc(N(C)C)cc2)C(=O)N(CC)C1=S | 100
COc1cc2c(cc1OC)C(c1ccc(Cl)cc1)=NCC2 | 100

(next part)
SMILES | VACV E9 pol inh
COc1ccc(C2CC(=O)c3cnc(NCCc4ccccc4)nc3C2)cc1 (stereo not drawn) | 100
O=c1c(-c2cc3ccccc3o2)coc2ccccc12 | 94
CSc1sc(-c2ccon2)c(-c2ccco2)c1C#N | 106
COC(=O)c1c(NC(=O)C(F)(F)F)sc2c1CCCC2 | 101
Cc1ccc(-c2csc3ncnc(NCCO)c23)cc1 | 110
CCOC(=O)c1nc2ccccc2s1 | 101
O=C(CN1C(=O)/C(=C\c2cccc(Cl)c2)Oc2ccccc21)NCC1COc2ccccc2O1 (stereo not drawn) | 91
CCN(Cc1ccccc1)C(=O)c1ccc2c(Cl)c3c(nc2c1)CCCC3 | 99
CCSc1cccc2cccnc12 | 99
CC1(C(=O)Nc2ccc(NC(=O)C3(C)CCCC3)cc2)CCCC1 | 103
COC(=O)c1sc(C(C)(C)C)cc1CS(=O)(=O)c1cc(C)c(Cl)cc1C | 100
Cn1ccnc1C(=O)c1cccnc1 | 94
Cc1cc(C)c2c(C)c(C(=O)NN)sc2n1 | 101
CC(=O)N(CCc1ccccc1)CC1C(Oc2ccc(Cl)cc2)C(=O)N1c1ccccc1C (stereo not drawn) | 99
Cc1nn(CO)c(C)c1Sc1ccc(Cl)cc1 | 85
CCc1nc(-n2nnc3cc(C)c(C)cc32)c2c3c(sc2n1)CCCC3 | 100
CCn1c(=O)cc(O)c2ccccc21 | 99
O=C(O)CN1N=C(c2ccc(Cl)cc2)CCC1=O | 102
O=C(CSc1nc2ccccc2[nH]1)C1CC1 | 100
CCOC(=O)C1=C(c2ccccc2)OC(N)=C(C#N)C1c1ccc(F)cc1 (stereo not drawn) | 99
FC(F)(F)c1cccnc1SCc1ccc(Cl)cc1 | 101
Cc1ccc2c(c1)CCCN2CC(=O)N(c1ccccc1)C1CCCCC1 | 81
CCN1CCc2c(sc(N)c2C#N)C1 | 90
O=C(CCN1CCCC1)Nc1nc(-c2ccc(Cl)cc2)cs1 | 92

Assay outcomes from PubChem.
